D2 PAM: positive allosteric modulators of human D2 dopamine receptor | actives 0.23% (n = 360,000) | DiscoveRx D2 beta-arrestin cells, luminescence, 90 min; 100% = 57 uM dopamine signal | potentiation, % (concentration not given with the values); active = potentiation of 50% or more; inconclusive = 30% to 50%; inactive = 30% or less;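 also: compound concentration not given in the record; tested on top of an EC20 dose of dopamine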
Target sequence (P14416 whole entry, looked up): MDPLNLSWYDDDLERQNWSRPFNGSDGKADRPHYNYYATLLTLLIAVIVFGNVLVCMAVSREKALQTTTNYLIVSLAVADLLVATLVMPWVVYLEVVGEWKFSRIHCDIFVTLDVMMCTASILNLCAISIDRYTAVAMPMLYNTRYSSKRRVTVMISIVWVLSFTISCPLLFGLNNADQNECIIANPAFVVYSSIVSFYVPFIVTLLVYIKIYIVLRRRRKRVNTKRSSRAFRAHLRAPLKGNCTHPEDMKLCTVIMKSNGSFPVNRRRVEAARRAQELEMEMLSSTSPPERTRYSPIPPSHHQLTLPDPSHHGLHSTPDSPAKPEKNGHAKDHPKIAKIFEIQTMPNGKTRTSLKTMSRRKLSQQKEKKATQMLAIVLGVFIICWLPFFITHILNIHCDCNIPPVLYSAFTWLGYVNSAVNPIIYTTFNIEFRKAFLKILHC
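D2 cells co-treated with compound plus 50 nM dopamine (EC20) for 90 min at 37 deg C to detect potentiation. Beta-arrestin recruitment was read as enzyme-fragment luminescence after 1 h at ambient temperature. Full response was set by 57 uM dopamine.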
D2 ag: activates the human D2 dopamine receptor | P14416 | DiscoveRx PathHunter D2 beta-arrestin, luminescence, 90 min; 100% = 57 uM dopamine signal | activation, % (no concentration beside the values) | actives 0.084% (n = 360,000) | AID 624465; in the data active = activation above about 40%; inconclusive = about 15% to 40%; inactive = below about 15%; also: compound concentration not given in the record; the text of the record calls up to 30% inactive
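Agonist mode: compounds alone added to overnight-plated D2 PathHunter cells for 90 min at 37 C, with 57 uM final dopamine (EC100) defining full response. Beta-arrestin recruitment detected by chemiluminescent reagent, read after 1 h at ambient temperature.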
Six1-Eya2 blk: inhibitors of human Six1/Eya2 interaction; activity change, % (test concentration not listed); actives 0.56% (n = 360,000); AlphaScreen GST-Six1/His-Eya2 binding, biochemical; active compounds read low; control for the full effect not named in the record; AID 651725; in the data active = activity change below about -65%; inconclusive = about -30% to -65%; inactive = above about -30%; also: % is scaled to controls: 0 for no effect and ±100 for the full control effect
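AlphaScreen luminescence read after one hour at 37 °C in darkness. Pin-transferred compounds met GST-Six1 and His-Eya2 protein (5X stock 250 nM/500 nM) plus glutathione donor and Ni-chelate acceptor beads (5X, 50 ug/mL).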
TRPML1 agonist: activates the human TRPML1 channel; Q9GZU1; TRPML1-expressing cells, Ca2+ dye fluorescence, FDSS; host cell line not named in the record; reference of the full effect not given here; activation, % (concentration not given with the values); actives 0.12% (n = 410,000); in the data active = activation above about 50%; inconclusive = about 30% to 50%; inactive = below about 30%; also: 0% is about no effect; the text of the record puts the active cut at 80%
Target sequence (Q9GZU1 whole entry, looked up): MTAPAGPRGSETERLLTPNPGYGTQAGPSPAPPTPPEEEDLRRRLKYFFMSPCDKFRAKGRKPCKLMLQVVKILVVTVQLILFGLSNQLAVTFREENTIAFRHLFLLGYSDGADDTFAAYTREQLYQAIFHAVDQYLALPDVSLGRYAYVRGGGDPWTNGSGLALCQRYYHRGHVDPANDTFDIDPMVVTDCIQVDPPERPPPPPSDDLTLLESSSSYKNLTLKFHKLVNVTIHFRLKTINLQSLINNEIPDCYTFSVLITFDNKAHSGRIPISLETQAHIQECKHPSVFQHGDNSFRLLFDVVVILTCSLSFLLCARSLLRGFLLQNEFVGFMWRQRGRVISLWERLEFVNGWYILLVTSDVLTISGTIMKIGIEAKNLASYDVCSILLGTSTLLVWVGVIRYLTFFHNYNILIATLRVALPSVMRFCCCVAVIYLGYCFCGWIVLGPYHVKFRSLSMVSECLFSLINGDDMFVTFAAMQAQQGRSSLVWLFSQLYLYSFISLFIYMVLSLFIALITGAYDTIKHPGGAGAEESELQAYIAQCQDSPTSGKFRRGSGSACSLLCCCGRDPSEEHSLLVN
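Calcium fluorescence on an FDSS kinetic reader gave the read-out. Tet-induced TRPML1-DL cells were plated overnight, dye-loaded (Ca8 with quencher, 45-90 min, room temperature, dark), then read 110 s after compound addition, and again 110 s after 4uM final 54-4 (EC80).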
TRPML1 inh: human mucolipin-1 channel inhibition. Q9GZU1. TRPML1-inducible cells, Ca2+ dye fluorescence, FDSS; active compounds read low; inhibition of EC80 agonist-evoked calcium signal. activity change, negative = inhibition, % (concentration not given with the values). actives 0.02% (n = 390,000); in the data active means activity change below about -50%; inconclusive means about -30% to -50%; inactive means above about -30%;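 also: stimulus is agonist 54-4 at its EC80 concentration; % is scaled to controls: 0 for no effect and ±100 for the full control effect; the text of the record puts the active cut at -80%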
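TRPML1-DL cells, Tet-induced overnight (~16 h, 37 °C) at 1,500 cells/well, were loaded with Ca8 no-wash dye plus quencher for 45-90 min at room temperature. Compounds were pinned during FDSS kinetic reading; agonist 54-4 at EC80 (4 uM final) then added.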
PINK1 expr mod: modulators of PINK1 expression. PINK1 immunofluorescence, high-content cytometry, 24 h. Potency, µM (series often up to 76.6 µM), without a hit: top-dose activation (PINK1 increase), hits mostly activators. actives 0.2% (n = 410,000); active = well fitted activation curve with a large enough effect; inconclusive = small, poorly fitted or top-dose-only effect; inactive = flat fitted curve, though single readings scatter; cell line not stated here;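 also: potency is read from the fitted curve at half-maximal effect; % of control where 0% means no effect; nearly all actives have a fitted effect of over 65% in size; a mitochondrial uncoupler was the plate control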
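Cells are seeded, rested 12 hours, then given compound at five concentrations or DMSO for 24 hours. After fixation, blocking and antibody staining, PINK1 amount and mitochondrial localization are scored; CCCP serves as control.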
An asterisk follows results filed as active; ? = inconclusive; · = not tested or not shown; [ ] = remark or other dose.

Molecule,D2 PAM,D2 ag,Six1-Eya2 blk,TRPML1 agonist,TRPML1 inh,PINK1 expr mod
CCOC(=O)C1=C(COC(=O)COc2ccc(OCC)cc2)NC(=O)NC1C (configuration not stated),21,-4.8,4,-0.7,13,1.9%
N=C1/C(=C/c2ccc(-c3cccc(C(=O)O)c3)o2)C(=O)N=C2SC=C(c3ccccc3)N12,-5,-9.0,?,3.6,-1,1.7%
COC(=O)c1ccc(S(=O)(=O)c2ccc([N+](=O)[O-])cc2)cc1,18,?,-7,0.0,-2,2.0%
CC(=O)N[C@@H]1c2c(ccc3ccccc23)OC[C@@H]1COC(C)=O,-5,1.0,7,-0.5,1,2.3%
NC(=O)C1CC(=O)N(c2ccc(OCc3ccc([N+](=O)[O-])cc3)cc2)C1 (configuration not stated),1,8.5,10,0.2,-3,0.0%
Cc1ccc(NC(=O)Cn2c([N+](=O)[O-])cnc2C)cc1,-16,-1.6,2,-0.4,13,0.7%
O=C(Nc1nnc(CCc2ccccc2)s1)c1ccc(F)cc1,-4,0.9,-12,0.0,7,1.0%
C=CCn1c(-c2oc3nc(-c4ccccc4)cc(-c4ccccc4)c3c2N)n[nH]c1=S,-15,0.6,0,4.8,-5,5.0%
CO/N=C(/CS(=O)Cc1ccccc1Cl)c1ccc(Cl)cc1Cl (configuration not stated),-12,-0.7,-2,0.2,-14,-4.0%[38.3 µM]
c1ccc(Nc2nc(N3CCNCC3)nc(N3CCOCC3)n2)cc1,-27,-1.9,-11,1.7,3,2.8%
Cc1ccc(S(=O)(=O)N2CCCCC2)cc1NC(=O)c1ccc(Cl)nc1,0,0.4,4,0.9,-3,0.9%
CCOc1ccc(CCNC(=O)CS(=O)(=O)Cc2nc(-c3cccc(Cl)c3)oc2C)cc1,·,·,·,0.8,73,5.9%
O=C(NCCCN1CCOCC1)c1ccc2c(c1)N(Cc1ccc(F)cc1)CCS2,-12,-2.4,-12,0.0,-18,0.1%
CCN(CC)C(=O)c1sc2c(c1C)c(=O)n(-c1ccc(C)c(C)c1)c(=O)n2Cc1cccc(Cl)c1,·,·,·,1.0,62,4.1%
Cc1c(CC(=O)NCCC(C)C)c(=O)oc2cc3c(cc12)CCC(C)(C)O3,-5,-0.7,4,0.9,-15,7.8%
O=C(c1ccco1)N1CCN(c2ccnc3cc(Cl)ccc23)CC1,0,-0.5,-14,1.0,-12,1.7%
O=C(COc1ccccc1)Nc1nnc(-c2ccccc2Cl)o1,-11,3.9,?,0.8,26,-0.9%
CCC(=O)Nc1cccc(OCc2cc(=O)n3cc(C)ccc3n2)c1,·,·,·,-0.1,-5,0.9%
Cc1ccc(-n2c(C)c(C)c3c(NCCO)ncnc32)cc1,0,0.4,-7,2.1,-3,3.3%
O=C(O)CC1(CC(=O)N2CCN(CCO)CC2)CCCC1,-6,-2.7,0,0.1,28,1.4%
CCC(C)NC(=O)CN(c1ccc(OC)cc1)S(=O)(=O)c1ccccc1 (configuration not stated),-4,-0.8,6,-0.5,2,-0.4%
c1ccc(C[n+]2cccc(-c3ccccc3)c2)cc1,-14,-1.3,5,-0.5,18,0.8%
CCc1nn2c(=O)cc(COc3ccc(NC(=O)c4ccco4)cc3)nc2s1,6,-4.0,12,0.3,?,23%
Cc1ccc(NC(=S)N/N=C/c2c(C)nn(-c3ccccc3)c2N2CCCC2)cc1,-12,-6.5,-7,-0.4,-8,4.4%
COc1cc(/C=N/NC(=O)c2ccc(NC(=O)C3CCCCC3)cc2)ccc1O,8,-0.5,-12,-0.8,1,-1.7%
COc1cccc2c1C(=O)c1c(O)c3c(c(O)c1C2=O)CC(O)(C(C)=O)CC3OC1CC(N(C)C)C(O)C(C)O1 (configuration not stated),-5,5.1,?,10,9,-6.8%
CC1CCc2sc(NC(=O)C3CC(Cl)=CCC3C(=O)O)c(C#N)c2C1 (configuration not stated),9,0.3,-14,0.1,28,-2.2%
CC(C)(C)OC(=O)NC(CO)c1cn([C@@H](Cc2cc3ccccc3[nH]2)C(=O)N2CCN(C(=O)OC(C)(C)C)CC2)nn1 (some centres not stated),-5,-2.4,-9,-0.2,10,0.8%
CCCn1c2ccccc2c2cnn(CC(=O)NCC3CCN(Cc4ccc(F)cc4)CC3)c(=O)c21,·,·,·,1.3,-5,1.2%
c1cncc(C(c2nnnn2C2CCCC2)N2CCCC2)c1 (configuration not stated),3,-1.1,5,0.5,14,-0.5%[38.3 µM]
CCOc1ccc(NC(=O)CN2CCN(c3ccccc3C)CC2)cc1S(=O)(=O)N1CCCC1,-28,-0.5,-6,0.7,18,1.4%
C=CCn1c(=O)c2c(C)c(C)sc2n2c(Nc3ccc(OC)cc3)nnc12,15,6.5,-1,-0.2,43,-1.1%
Cc1ccc(C(=O)NNC(=O)c2cccc3ccccc23)cc1,-7,-7.7,-10,0.3,-13,-0.1%
Cc1cccc(/C=N/NC(=O)c2cc(Br)ccc2OCc2ccccc2)n1,-3,0.4,0,1.6,43,2.0%
COC(=O)CCCn1cc(CN2CC(N3CCN(Cc4cccc(C)c4)CC3)CS2(=O)=O)nn1 (configuration not stated),·,·,0,-0.3,·,-1.0%
COc1ccc(NC(=O)c2ccc(N3CCOCC3)nc2)cc1,-7,-1.1,4,-0.5,-13,-0.3%

One compound at a time, as listed above. Order of values: D2 PAM	D2 ag	Six1-Eya2 blk	TRPML1 agonist	TRPML1 inh	PINK1 expr mod
Profile of CC(C)(C)OC(=O)NC(CO)c1cn([C@@H](Cc2cc3ccccc3[nH]2)C(=O)N2CCN(C(=O)OC(C)(C)C)CC2)nn1 (some centres not stated) = -5	-2.4	-9	-0.2	10	0.8%
Profile of c1cncc(C(c2nnnn2C2CCCC2)N2CCCC2)c1 (configuration not stated) = 3	-1.1	5	0.5	14	-0.5%[38.3 µM]

The list continues.
Molecule,D2 PAM,D2 ag,Six1-Eya2 blk,TRPML1 agonist,TRPML1 inh,PINK1 expr mod
N#Cc1ccc(-c2cccs2)nc1SCc1cccnc1,1,1.5,3,3.2,60,12%
O=C(Nc1ccc2nc(SCC(=O)N3CCCc4ccccc43)sc2c1)c1ccc(Cl)cc1,·,·,·,1.2,8,2.1%
CCC(C)n1c(C)cc(=O)n1C(C)CC (configuration not stated),-13,-1.6,-1,0.2,-3,-4.9%
OC(COc1ccccc1)CN1CCN(CC(O)COc2ccccc2)CC1 (configuration not stated),-4,-3.6,-1,-0.5,6,0.7%
CCOc1cc(-c2nc(-c3ccncc3)no2)cc(OCC)c1OCC,-15,-3.4,2,-1.0,-3,1.8%
COCCN(C(=O)CSc1nc2ccccc2c(=O)n1C(C)COC)c1c(N)n(Cc2ccccc2)c(=O)[nH]c1=O (configuration not stated),-5,-20,4,-0.7,2,6.9%
Cc1csc(Nc2ccccc2)n1,-8,-4.7,7,-0.4,3,0.2%
CC(C)(C)NC(=S)NC(C)(C)C,2,3.9,-7,0.2,6,-0.5%
COc1cc(C(=O)Nc2nnc(-c3sccc3C)s2)cc(OC)c1OC,-7,-1.3,-4,-1.0,7,1.8%
CCOC(=O)c1cnc2cc(Cl)c(OC)cc2c1NCC1CCCO1 (configuration not stated),-7,-2.5,7,5.3,-2,-1.7%
CCN(CC)S(=O)(=O)c1ccc(O)c(NC(=O)CN2CCc3ccccc3C2)c1,-5,-2.9,-2,-0.5,1,15%
C[C@]12CCC(O)CC1=CCC1C2CC[C@]2(C)/C(=N\NC(N)=S)CCC12 (some centres not stated),-3,0.0,-12,1.2,1,-2.8%
Cc1cc(-c2onc3ccc(Cl)cc23)ccc1O,97*,?,9,8.4,36,0.8%
CC1CCN(C(=O)CNC(=O)Cc2ccccc2)CC1,-2,-2.3,10,1.4,1,-1.1%
COc1cccc(CNC(=O)CN2C(=O)NC(Cc3ccccc3)(c3ccccc3)C2=O)c1 (configuration not stated),-2,-1.2,-2,-0.1,-8,-1.8%
CC(C)Nc1nnc(SC(C)C(=O)Nc2ccc(Cl)cn2)s1 (configuration not stated),-1,-4.7,4,1.0,6,-1.1%
CC1CCCC(NC(=O)CSC2=Nc3ccccc3C3CC=NN23)C1C (configuration not stated),-4,0.1,28,5.0,-12,0.6%
CCN(CC)C(=O)CSc1nnc(C2CCCCC2)o1,-16,-1.7,9,1.1,-13,-0.8%
CCCOc1ccc(-c2nc(OC)c3ccccc3n2)cc1,-5,-5.3,43,-0.9,30,12%
Nc1cccc(/C=C/c2ccncc2)c1,-14,1.1,0,-0.1,0,-0.8%
O=C(C1CCN(c2nnc(-n3cccc3)s2)CC1)N1CCCCC1,-10,2.2,0,-0.7,-4,0.1%
COc1ccc(CNC(=O)O[C@@H]2C[C@H]3C(=O)N(c4ccccc4)C(=O)[C@H]3[C@@]3(CN(S(=O)(=O)c4ccc(C)cc4)C[C@H]3C)[C@@H]2O)cc1OC,·,0.4,-9,·,·,5.8%
c1ccc2c(c1)OCCOCCOCCO2,2,0.4,6,0.1,?,1.4%
CC(C)(C)NC(=O)N1c2ccccc2Sc2ccccc21,-10,-5.6,3,·,·,0.4%

2 of the compounds above, with two lines to a compound:
Results follow in this order: D2 PAM, D2 ag, Six1-Eya2 blk, TRPML1 agonist, TRPML1 inh, PINK1 expr mod
COc1cc(C(=O)Nc2nnc(-c3sccc3C)s2)cc(OC)c1OC
 : -7, -1.3, -4, -1.0, 7, 1.8%
CC1CCN(C(=O)CNC(=O)Cc2ccccc2)CC1
 : -2, -2.3, 10, 1.4, 1, -1.1%

Following part:
Molecule,D2 PAM,D2 ag,Six1-Eya2 blk,TRPML1 agonist,TRPML1 inh,PINK1 expr mod
O=C(CNC(=O)c1cccs1)OCC(=O)c1cccs1,1,-3.9,4,-0.8,20,-0.6%
Cc1cc(C)c2nc(SCC(=O)NCCC3=CCCCC3)cc(C)c2c1,-1,2.0,5,1.8,-13,25%
CCCCc1nc2cc(C(=O)N3CCCCC3CCNC(C)=O)ccc2o1 (configuration not stated),-6,5.6,6,1.1,-3,0.9%
Cc1ccc(/C=N/NC(=O)c2nnn(-c3nonc3N)c2-c2ccc3c(c2)OCO3)s1,-12,-1.7,-11,-0.8,3,-1.1%
COc1ccc(OC)c(NC(=O)Cn2cnc3onc(-c4ccc(Cl)cc4)c3c2=O)c1,·,·,·,3.1,16,11%
CCOc1ccc(S(=O)(=O)NCCC(=O)NCCOc2ccccc2)cc1,?,-2.2,2,1.6,-9,0.2%
COc1cc(C2C(C(=O)c3ccco3)=C(O)C(=O)N2Cc2cccnc2)cc(OC)c1OC (configuration not stated),10,-0.6,5,0.3,20,-0.4%[38.3 µM]
Cc1ccc(C(=O)NCC(=O)N/N=C/c2sccc2C)cc1[N+](=O)[O-],-19,-6.0,7,1.0,15,3.6%
CNC(=O)CC(C(=O)O)c1ccc(OC(C)C)cc1 (configuration not stated),-5,-3.8,2,0.7,-1,-1.3%
Cc1cc(C(=O)NCCN2CCOCC2)c2ccccc2n1,-5,-5.9,-4,0.2,-1,-0.3%
O=C(CSc1nnc(CNC(=O)c2cccs2)o1)NC1CCCC1,-18,-4.0,3,0.1,-11,-0.1%
